# Tgondii IFNg: blocks Toxoplasma gondii growth in the presence of IFN-gamma. AID 1259416. Toxoplasma gondii growth in IFN-gamma-treated host cells; hits give low values; reference of the scale not given here. activity change, negative = inhibition, %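 (about 20 µM by stock and volumes)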. hit rate 3.8% among 69,000;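 active = below -70%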;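 note: host cells are HeLa cells infected with Toxoplasma gondii; parasite growth read as luciferase light; one replicate is shown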
# Active calls of the source: *; i = inactive; & = joins results of further samples. An excerpt; rates above refer to the full screens.
Molecule	Tgondii IFNg
Cc1ccc(C(=O)N2CC[C@@H]3O[C@@H](c4nc(C)no4)C[C@H]3C2)cn1	-4.6
COc1ccc(-c2nc(Nc3cc(F)ccc3F)c3ccccc3n2)cc1	4.9
O=C(C1CCOCC1)N1CC2(C1)[C@@H](c1ccccc1)[C@H](CO)N2C(=O)CC1CC1	-8.2
Cc1cccc(N2CCN(C(=O)c3ccc(-c4csc(C5CC5)n4)cc3)CC2)c1C	12.8
CN(C)C(=O)Cc1ccc(S(=O)(=O)N2CCC(Oc3cnccn3)CC2)cc1	-3.0
CCNC(=O)c1ccc(-n2cccn2)c(C#Cc2cccnc2)c1	12.9
CN(C)C(=O)CN1CC[C@@H]2CN(Cc3ccsc3)C[C@H]2C1=O	-35.6
Cc1nc(C(=O)N2CC[C@@H]3OCCN(C)[C@@H]3C2)cs1	42.0
CCNC(=O)c1ccc(-c2ccccc2OCC)s1	-66.9
O=C(CC1COCCN1)NCc1nncn1CCc1ccccc1 (stereo not drawn)	27.4
CCn1cc(S(=O)(=O)NCC(c2ccc(OC)cc2)c2c[nH]c3ccccc23)cn1 (stereo not drawn)	-36.2
Cc1c(NC(C)C)c(=O)n(-c2ccccc2)n1C	15.6&17.8
Cc1ccccc1-n1cc(-c2c(-c3ccccc3)ncn2Cc2ncn[nH]2)cn1	4.6
CN(C)[C@@H]1C[C@@H](CO)N(C(=O)c2ccccn2)C1	-51.8
Cc1noc(C)c1CNC(=O)CSc1cn(C)c2ccccc12	15.3
CCSc1nc(CC(=O)NCc2n[nH]c3c2CCCCC3)cs1	-3.3
CC(C)(C)Cc1c(-c2ccccc2)ncn1CC1CCOCC1	-32.0
CC(C)CC#Cc1ccc([C@@H]2[C@@H](CO)N3C(=O)CN(C(=O)Nc4cc(F)ccc4F)C[C@@H]23)cc1	-21.2
Cc1ccc(NC(=O)C2CC(=O)Nc3nc4ccccc4n32)c(C)c1 (stereo not drawn)	91.3
Cc1ccc2[nH]cc(CCN3CC(C(=O)NC4CCCCCCC4)CC3=O)c2c1 (stereo not drawn)	135.7
CN1C[C@H]2[C@@H](c3ccccc31)[C@H](CO)N2C(=O)C1CCOCC1	-38.5
Cc1cc(N)nn1Cc1ccccc1F	21.8
CCn1c(C2CCCN(C(=O)Cn3nc4ccccc4n3)C2)nn(C)c1=O (stereo not drawn)	15.8
Cc1ccc(-n2cnc3cc(NS(=O)(=O)c4ccc(C)cc4)ccc32)cc1	-0.8
C=CCOCC1c2nnn(CC)c2CCN1Cc1c(C)noc1C (stereo not drawn)	64.9
CN(Cc1cnc(N2CCCC2)nc1)Cc1cc(-c2ccccc2)no1	-4.3
COc1cccc(NC(=O)N[C@H]2CC[C@H](CC(=O)N3CCN(C)CC3)O[C@H]2CO)c1	14.1
COc1ccc(CNC(=O)c2c(O)c3cccnc3n(-c3ccc(F)cc3)c2=O)cc1	85.2
S=C(NCc1csc2ccccc12)c1ccccc1	-77.6*
O=C(NCc1ccccc1)NC1(C(=O)N2CCN(c3ccccc3)CC2)CCCCC1	9.3
COCc1nc(N(C)CCc2c(C)n[nH]c2C)c2cnn(C)c2n1	5.7
CN(C)C(=O)COCC1COCCC12CCN(S(C)(=O)=O)CC2 (stereo not drawn)	-1.1
Cc1cc(C(=O)N2CCC3(CC2)N=C(CC(C)C)NC3=O)c(C)o1	-46.1
CC(c1ccc(-c2ccc3cc[nH]c(=O)c3c2)cc1)N1CCOCC1 (stereo not drawn)	142.8
O=C(Nn1cnnc1)c1cc2ccccc2oc1=O	3.7
COc1cccc(-c2ccc3c(c2)O[C@H](CN(C)Cc2cccnc2)[C@@H](C)CN([C@H](C)CO)S3(=O)=O)c1	-97.2*
Cc1cccnc1NC(=O)CN1C(=O)CCc2cc(S(=O)(=O)N3CCC(C)CC3)ccc21	-21.9
c1ccc(-c2cn3nc(-c4ccccn4)c(-c4ccccn4)nc3n2)cc1	22.6
N#C[C@H]1[C@@H](c2ccc(-c3cccc(F)c3)cc2)[C@@H](CO)N1c1nc(-c2ccccc2)cs1	8.2
O=C1NC(=Nc2cccc3ccccc23)SC1(CO)CO	6.5
O=C(O)c1cc2n(n1)C(C(F)(F)F)CC(c1ccc3c(c1)OCO3)N2 (stereo not drawn)	10.7
Cc1ccc(S(=O)(=O)N2CCC3(CC2)Nc2cc(F)ccc2-n2cccc23)cc1C	36.7
CCOC(=O)N1CCC2(CC1)OC(=O)C(C)=C2C(=O)NCC1CCCO1 (stereo not drawn)	-18.0
OC[C@@H]1[C@@H](c2ccccc2)C2(CN(CCC(F)(F)F)C2)N1Cc1nccs1	-31.9
CN1c2ccccc2[C@H]2CN(C(=O)C3CC3)CC[C@H]21	-2.7
Cc1ccc(S(=O)(=O)Nc2ccc3c(c2)CC(=O)N([C@@H](C)CO)C[C@H](C)[C@@H](CN(C)S(=O)(=O)c2ccccc2)O3)cc1	-7.3
COc1ccc(-c2nc(C)c(CCNC(=O)c3c(F)cccc3F)s2)cc1	i
Cc1noc(C)c1CN1CCn2c(Cn3cccn3)cnc2C1	2.0
COc1cccc(C(CNS(=O)(=O)N2CCC(C)CC2)N2CCCC2)c1 (stereo not drawn)	9.0
N#Cc1cccc(-c2ccc3c(c2)[C@@H]2[C@@H](CCN2S(=O)(=O)c2ccc(F)cc2)[C@@H](CO)N3)c1	-62.3
Cc1cnc(-n2cnnc2)c(-c2ccc(C(C)N3CCOCC3)cc2)c1 (stereo not drawn)	-1.3
Cc1nc(-c2cccc(F)c2)sc1CCNC(=O)C(=O)Nc1ccc(F)c(Cl)c1	37.7
COC(=O)c1cc(NC(=O)S(=O)(=O)c2ccccc2)cc(C(=O)OC)c1	86.5
COc1ccc(CNc2ncc(-c3cc(C)no3)c(-c3ccoc3)n2)cc1OC	96.2
CSCc1noc(CN2CCCC(O)(CO)CC2)n1 (stereo not drawn)	-0.4
O=C(CSc1ccc(F)cc1Cl)C12CC3CC(CC(C3)C1)C2	-57.4
O=C(NCC1Cn2nncc2CO1)c1ccc[nH]1 (stereo not drawn)	0.0
Cc1ccccc1-c1coc2cc(O)ccc2c1=O	-5.9
Cc1cc(CC(C)n2cnc(-c3ccccc3)c2-c2cnn3cccnc23)n[nH]1 (stereo not drawn)	2.7
Cc1csc(CNC(=O)c2cccc(NCc3cccnc3)c2C)n1	39.2

# The results go on.
structure	Tgondii IFNg
CN1C(=O)N(Cc2ccc3ccccc3c2)C(=O)C12CCN(Cc1ccncc1)CC2	11.6
COc1ccc(NC(=O)Cn2c(=O)cc(C(=O)N3CCC(C)CC3)c3ccccc32)cc1OC	5.3
Cc1nc(-c2cccnc2)ncc1C(=O)N1CC(c2ccncc2)C1	-3.2
Cc1nc(-c2ccc(Cl)cc2)sc1CCNC(=O)C(C)C	184.3
CCC(=O)N1CC2(C1)[C@@H](c1ccc(-c3ccc(F)cc3)cc1)[C@H](CO)N2C(C)=O	2.9
COCCCNC(=O)Cn1nc(C)c2sc(-c3ccccc3)nc2c1=O	-17.9
O=C(Nc1ccccc1Cl)N1CCCC2(C1)Nc1cccnc1NC2=NC1CCCC1 (stereo not drawn)	-4.6
OC(CSc1nc(-c2ccccc2)n(-c2ccccc2)n1)C(F)(F)F (stereo not drawn)	-10.4
Cc1nn(-c2cc(N(C)C)ncn2)c(C)c1CCC(=O)NC1CCCCC1	24.8
Cc1nc(OCC(=O)Nc2cc(Cl)ccc2C)c2ccccc2n1	-7.7
Cc1c(-c2ccnn2C(=O)c2ccco2)cnn1-c1ccccc1	92.1
O=C(NCc1ccc(S(=O)(=O)N2CCCC2)cc1)c1ccc(-n2cccn2)nc1	-17.3
CN1C(=O)CCC12CCN(c1ccc(C#N)cn1)CC2	365.1
Cc1nccn1CC(O)Cn1c2ccc(Cl)cc2c2cc(Cl)ccc21 (stereo not drawn)	-9.5
Cc1oc(-c2ccc(C(=O)N3CCCC3)cc2)nc1CN1CCc2ccccc21	-42.1
CO[C@H]1[C@H](NC(=O)c2cccc(F)c2)c2ccccc2C12CCN(Cc1nc(C(C)C)cs1)CC2	-4.6
Cc1noc(C)c1NC(=O)N(C)C[C@@H]1OCc2ccccc2-c2c(n(C)c3ccccc23)C(=O)N([C@@H](C)CO)C[C@H]1C	77.1
O=C1C[C@@H](c2ccccc2)C(=O)N[C@H](c2ccccc2)C/C=C\C[C@H](c2ccccc2)N1	21.3
Cc1[nH]n2c(=O)cc(C(=O)Nc3nc(C(C)C)cs3)nc2c1-c1ccccc1	12.3
O=c1[nH]ccn(-c2c(F)cccc2F)c1=O	-24.3

# Exported field by field: entries from further up.
CN1C(=O)CCC12CCN(c1ccc(C#N)cn1)CC2
  Tgondii IFNg: 365.1

Cc1nccn1CC(O)Cn1c2ccc(Cl)cc2c2cc(Cl)ccc21 (stereo not drawn)
  Tgondii IFNg: -9.5

# Laid out differently: entries from further up.
Cc1nn(-c2cc(N(C)C)ncn2)c(C)c1CCC(=O)NC1CCCCC1
  Tgondii IFNg: 24.8

Cc1oc(-c2ccc(C(=O)N3CCCC3)cc2)nc1CN1CCc2ccccc21
  Tgondii IFNg: -42.1

# The list continues.
structure	Tgondii IFNg
Cc1nc2ncccn2c1C(=O)NCc1cnn(-c2cccc(F)c2)c1	-0.6
Cc1ccc(C(C)C)c(OCCNC(=O)Cn2nc(C)nc2C)c1	1.5
O=C(c1nc2c(s1)CCCC2)N1CCCCC1CCn1ccnc1 (stereo not drawn)	-1.1
CCN1C(=O)[C@@H]2CN(C(C)=O)C[C@H]2C12CCN(C(=O)Nc1ccc(F)cc1)CC2	320.6
C[C@@H]1CCCCO[C@H](CN(C)Cc2ccc3c(c2)OCO3)[C@@H](C)CN([C@@H](C)CO)C(=O)c2cc(NS(=O)(=O)c3cn(C)cn3)ccc2O1	267.2
CCCNC(=O)N1C[C@@H]2N[C@H](C1)C2c1ccc(-c2ccc(OC)cc2)cc1 (stereo partly drawn)	-53.8&-52.8
CN1C(=O)c2cc(NC(=O)c3cccc(C(F)(F)F)c3)ccc2OC[C@@H]2O[C@H](CC(=O)NCCN3CCCC3)CC[C@H]21	18.8
CC1=C(C(=O)Nc2cc(C)cc(C)c2)C2(CCN(Cc3ccccc3)CC2)OC1=O	-9.2
CCCN1CCCn2c(nc(CNC(=O)c3cccn3C)cc2=O)C1	3.1
Cc1nnc(-c2cccc(-c3ccccc3CO)c2)s1	21.0
Cc1cc(C)cc(NC(=O)C2CC(=O)N(CCc3c[nH]c4ccc(C)cc34)C2)c1 (stereo not drawn)	495.1
COc1ccc(NC(=O)c2c(NS(=O)(=O)c3ccc(C)cc3)csc2C)cc1	14.5
CCOC(=O)c1[nH]c(C)c(/C=C/C2=CCN(C)CC2)c1C	-9.0
COCC(=O)N1[C@H](CO)[C@H](c2ccc(C#Cc3ccccc3F)cc2)[C@@H]1C#N	27.6
Cc1ccc(NC(=O)c2nnn(Cc3nc(-c4ccc(Cl)cc4)oc3C)c2C)c(Cl)c1	-34.0
CN(C)CCN(C)C1CCCN(C(=O)c2ccc(-c3ncn[nH]3)cc2)C1 (stereo not drawn)	7.1
O=C1NCC2(CCCN(C(=O)c3cc(=O)[nH]c4ccc(F)cc34)C2)O1 (stereo not drawn)	-25.7
CCCCCCN(CCCCCC)C(=O)Cc1c(-c2ccc(F)cc2)[nH]c2ccccc12	-23.3
CCc1ccc(C(=O)C(C)CN2CCCCC2)cc1 (stereo not drawn)	20.2&-2.1
CC(C)OC(=O)CNC(=O)[C@H](CS)NC(=O)CC[C@H](N)C(=O)O	11.9

# Gathered by group: the compounds so far containing a furan ring, fused or not
structure	Tgondii IFNg
Cc1cc(C(=O)N2CCC3(CC2)N=C(CC(C)C)NC3=O)c(C)o1	-46.1
COc1ccc(CNc2ncc(-c3cc(C)no3)c(-c3ccoc3)n2)cc1OC	96.2
Cc1c(-c2ccnn2C(=O)c2ccco2)cnn1-c1ccccc1	92.1

# Continuation.
structure	Tgondii IFNg
C[C@H](CO)N1C[C@H](C)[C@@H](CN(C)S(=O)(=O)c2ccccc2)Oc2ccc(NC(=O)C3CC3)cc2C1=O	-10.3
CCCC(=O)Nc1ccc2c(c1)C(=O)N(C)[C@H]1CC[C@H](CC(=O)NCc3cccc(F)c3)O[C@@H]1CO2	-43.5
CC1(C)CNC(=O)c2nc(CCCc3ccccc3)[nH]c2C1	3.2
CCOC1CC2(CCN(C(=O)c3cnc(C)cn3)CC2)C1	-0.5
CCCNC(=O)N(C)C[C@H]1Oc2cc(C#C[C@@H](C)O)ccc2S(=O)(=O)N([C@H](C)CO)C[C@H]1C	-39.2
COCC(=O)N1[C@@H](CO)[C@@H]2c3ccccc3NC[C@@H]21	-37.4
CC1=C(C(=O)NCC2CCCO2)C2(CCN(S(=O)(=O)c3cccs3)CC2)OC1=O (stereo not drawn)	-1.6
CC(C)(C)c1ccc(C(=O)/C=c2\[nH]c(=O)/c(=C\c3cccs3)s2)cc1	-102.3*
CC(=O)Nc1ccc(Cl)c(C(=O)N(C)C(C)c2ccon2)c1 (stereo not drawn)	-8.4
N#C[C@H]1[C@H](c2ccccc2-c2cccc(F)c2)[C@@H](CO)N1C(=O)C1CC1	15.9
CN(C)C(=O)N1CCC2(CC1)CC(NCc1nccn1C)c1ccccc12 (stereo not drawn)	4.0
COc1ccccc1NC(=O)C(=O)NCCc1csc(-c2ccc(C(F)(F)F)cc2)n1	183.8
CC(=O)N1CC2(CCN(C(=O)c3cccc4[nH]ccc34)CC2)CC1C(=O)O (stereo not drawn)	4.9
COc1cc(NCCCc2csc(N)n2)ncn1	-0.1
CN(C)[C@@H]1C[C@@H](CO)N(Cc2c(Cl)nc3sccn23)C1	-25.5
OCC(CO)N[C@H]1C[C@](O)(CO)[C@@H](O)[C@H](O)[C@H]1O	12.1&11.6
CSc1nc(NS(=O)(=O)c2cc(Cl)sc2Cl)nn1C	-8.0
C=CC(=O)N1CCn2cc(CN3CCCC3)nc2C1	-14.3
O=C(c1ccc(N2CCOCC2)nc1)N1CCN(C(c2ccccc2)c2ccccc2)CC1	-68.0
CCOc1ccc(-c2nc(CN3CCN(C(=O)Nc4ccccc4CC)CC3)c(C)o2)cc1	0.2
Cc1ccc(N2CCCC3(CCN(Cc4ccc(Cl)c(F)c4)C3)C2)nn1 (stereo not drawn)	-7.6

# High-throughput results as filed in PubChem BioAssay.
